Assay outcomes as filed in PubChem BioAssay.
UCH37 inh = human UCH37 deubiquitinating enzyme inhibition; AID 588478; purified proteasome/UCH37, Ub-AMC cleavage fluorescence; hit rate 0.33% among 330,000; Q9Y5K5; inhibition, % (no concentration beside the values);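 active means mean of two replicates above 20%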;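 further: 0% = compound-free wells with enzyme and 100% = wells lacking proteasome; stock transfer was 100 nL into about 20 µL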
Target sequence (Q9Y5K5 whole entry, looked up): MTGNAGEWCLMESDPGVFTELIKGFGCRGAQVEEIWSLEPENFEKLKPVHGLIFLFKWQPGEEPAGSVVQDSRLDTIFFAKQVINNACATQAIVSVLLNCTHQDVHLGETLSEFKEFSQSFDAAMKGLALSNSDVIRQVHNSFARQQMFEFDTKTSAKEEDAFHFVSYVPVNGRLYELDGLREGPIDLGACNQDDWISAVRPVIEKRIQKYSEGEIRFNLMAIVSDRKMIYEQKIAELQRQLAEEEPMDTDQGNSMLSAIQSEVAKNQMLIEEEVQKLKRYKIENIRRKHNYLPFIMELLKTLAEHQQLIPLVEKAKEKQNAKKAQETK
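Material: Human UCH37 enzyme supplied as purified proteasome complex | Schedule: 30 min compound-proteasome preincubation then 25 min substrate reaction, room temperature | Detection: AMC fluorescence from Ub-AMC cleavage, excitation 355 nm, emission 460 nm | Benchmarks: Wells without proteasome as full block, compound-free enzyme plus substrate as uninhibited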
Beta cell apopt = blocks beta cell apoptosis; INS-1E cytokine-induced death, ATP luminescence, 48 h; percent of positive-control rescue, neutral wells zero; protection from apoptosis, % (test concentration not listed); hit rate 0.8% among 300,000; AID 435005;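 active means all replicates at 75% or more, or half of them and the mean; inconclusive means half reach 75% but not the mean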;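 further: 0% = cytokine-treated negative control wells and 100% = positive control rescue; higher means more ATP so stronger rescue from cytokine killing; wells of about 40 µL received 100 nL stock; the first replicate is given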
RanGTP-Impb inh = disruptors of Ran-importin-beta complex formation – biochemical, FRET, CFP-Ran, YFP-importin-beta, homogeneous, primary screen | cell-free CFP-Ran/YFP-importin-beta FRET ratio | inhibition, % (concentration not given with the values) | hit rate 1.1% among 300,000 | AID 2216;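 active means most replicates above 15%; inconclusive means exactly half above 15%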;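 further: 0% = DMSO wells and 100% = Ran loaded with GDP instead of GTP; wells of about 40 µL received 100 nL stock; the first replicate is given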
Calb FLC = C. albicans growth modulation with fluconazole. C. albicans CaCi-2 (fluconazole-resistant clinical isolate) + fluconazole, Alamar Blue growth, 48 h. growth inhibition, % (concentration not given with the values). hit rate 0.57% among 300,000. AID 1979;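 active means most replicates above 75%; inconclusive means exactly half above 75%; inactive means most below 75%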;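 further: all wells also contain fluconazole at 8 µg/ml as a sub-toxic cotreatment; 0% = median of DMSO wells and 100% = median of geldanamycin control wells; wells of about 8 µL received 7.5 nL stock; the first replicate is given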
T cruzi inh = blocks replication of Trypanosoma cruzi. T. cruzi beta-gal in NIH3T3, luminescence, 90 h. AID 1885. hit rate 1.4% among 300,000. inhibition, % (test concentration not listed);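 active means mean inhibition across valid replicates above about 55%, limit read from the data; inconclusive means mean below that limit but half or more replicates reach it; inactive means mean below it, under half of replicates reach it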;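 further: signal also drops with host cell toxicity which is not excluded here; 0% = plate median of DMSO wells and 100% = zero luminescence signal; higher percent means less beta-gal luminescence so fewer parasites; stock transfer was 50 nL into about 50 µL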
Beta2AR agonist = human beta-2 adrenergic receptor agonism by FAP. Am2.2-beta2AR cells, FAP receptor internalization, flow cytometry; reference of the scale not given here. response, % (no concentration beside the values). hit rate 0.43% among 340,000. P07550;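 active means response above a set limit, near 3 SD of response in nonfluorescent compounds, cut at about 42% in these data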;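 further: stock transfer was 100 nL into about 11 µL; a reference agonist was the positive control; negative values mostly stem from fluorescent compounds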
Target sequence (P07550 whole entry, looked up): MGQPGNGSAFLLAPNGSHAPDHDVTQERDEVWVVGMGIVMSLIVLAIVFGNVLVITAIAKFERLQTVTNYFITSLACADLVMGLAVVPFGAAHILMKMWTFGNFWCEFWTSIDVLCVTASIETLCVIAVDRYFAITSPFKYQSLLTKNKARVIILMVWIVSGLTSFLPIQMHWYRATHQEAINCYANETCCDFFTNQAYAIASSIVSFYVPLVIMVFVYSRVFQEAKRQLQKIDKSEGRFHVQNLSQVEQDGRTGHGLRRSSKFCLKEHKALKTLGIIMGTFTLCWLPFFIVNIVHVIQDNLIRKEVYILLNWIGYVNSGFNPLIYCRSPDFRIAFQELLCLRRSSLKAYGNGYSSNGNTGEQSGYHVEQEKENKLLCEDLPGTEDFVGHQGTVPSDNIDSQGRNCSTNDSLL
LANA-H2A inh = blocks KSHV LANA binding to histone H2A/H2B; Q9QR71; cell-free LANA-H2A/H2B peptide, fluorescence polarization; inhibition, % (test concentration not listed); hit rate 0.6% among 320,000; AID 2629; in the data active means inhibition mostly above about 10%, no sharp cut-off; inactive means mostly below about 6.7%;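 further: stock transfer was 7.5 nL into about 10 µL; 0% = median of vehicle wells and 100% = median of positive control wells; one replicate is shown; the record names a cut of 25% in any replicate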
Bfl-1 A1 inh = inhibitors of the anti-apoptotic protein A1, read as caspase activation; AID 2462; MEF A1-2A-BIM cells, Caspase-Glo 3/7 luminescence, 3 h; percent of clofoctol response, vehicle zero; caspase activation, % (test concentration not listed); hit rate 0.066% among 330,000;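 active means over half of replicate activation scores above 10%, or exactly half above 10 with the replicate mean above 10; inconclusive means replicate mean below 10 yet half the replicates above 10; inactive means over half of replicates below 10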;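 further: wells of about 30 µL received 50 nL stock; many hits fall short of the cut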
Numbers without * were called inactive; ? = inconclusive; . = not tested or not shown.

Every second line gives: UCH37 inh	Beta cell apopt	RanGTP-Impb inh	Calb FLC	T cruzi inh	Beta2AR agonist	LANA-H2A inh	Bfl-1 A1 inh
1	O=C(Cc1ccc(Br)cc1)Nc1ncc([N+](=O)[O-])s1
    6.4	28	-1.3	-5	60*	9	-0.3	-4.1
2	Oc1ccccc1N1CCN(c2ccc3ccccc3n2)CC1
    -15	-4	-1.8	-9	7	-4	-2.3	-2.8
3	CNc1ccccc1C(C)(C)c1cc(-c2cc(C)cc(C)c2)no1
    .	3	-1.3	-1	11	2	-4.9	-0.7
4	CCOC(=O)Cc1csc(SCC(=O)NC2CCC(C)CC2)n1 (configuration not stated)
    1.5	2	2.3	-4	-2	13	3.8	0.4
5	O=C(COc1ccc2ccccc2c1)N1CCN(C(=O)c2ccco2)CC1
    1.8	-11	1.3	12	-2	-21	-0.6	0.4
6	CN(C(=O)COC(=O)/C=C/c1cccs1)c1c(N)n(Cc2ccccc2)c(=O)[nH]c1=O
    6.6	-1	4.8	7	-14	-11	7.8	0.3
7	COc1ccc2nc(NCCNC(=S)NCCCN3CCOCC3)c(C#N)cc2c1
    -132	2	3.7	8	-10	0	2.7	0.4
8	CCOc1cc(C(=O)NC(=S)Nc2ccc(Cl)c(C(=O)O)c2)cc(OCC)c1OCC
    3.7	-9	-1.6	-2	3	1	0.8	0.4
9	Cn1c(NCc2ccco2)nc2c1c(=O)n(Cc1ccc(Cl)cc1)c(=O)n2C
    2.1	14	6.0	0	-7	1	0.2	0.3
10	CC1Cc2ccccc2N1C(=O)CN1C(=O)NC2(CCCCC2)C1=O (configuration not stated)
    -0.6	2	.	.	.	0	3.0	0.8
11	CS(=O)(=O)C1=NSC2=NC(=O)/C(=C\c3ccc(OS(=O)(=O)c4ccccc4)cc3)C(=N)N21
    1.7	-4	6.8	4	-4	-3	-0.8	-8.2
12	CCCCCC[n+]1c(-c2ccccc2)csc1Nc1ccccc1
    1.8	6	2.2	3	5	-2	-0.9	0.0
13	CCOC(=O)C1C(=O)NC(N2CCN(c3ccccc3)CC2)=NC1c1ccco1 (configuration not stated)
    1.8	4	1.8	2	-9	2	3.1	-0.3
14	O=C(O)c1ccc2c3n(nc2c1)-c1ccc(Cl)cc1CO3
    -25	-4	5.8	-2	-1	.	5.4	-7.2
15	CCC1(CC)Cc2ccccc2-c2nc(NCCCO)[nH]c(=O)c21
    -349	-15	0.2	-1	22	1	-1.6	-0.2
16	CSc1ccc(Cl)c(C(=O)OCC(=O)NC2CC2)c1
    -0.3	-3	1.1	-2	-2	-1	4.8	-0.6
17	CCc1sc(-c2ccccc2)nc1C(=O)OC
    2.5	1	-3.2	1	-18	1	-3.8	-0.3
18	CC1CCC/C(=C\Nc2ccc3c(c2)OCO3)C1=O (configuration not stated)
    1.7	8	0.2	-2	7	-3	-3.4	-1.0
19	Cc1cc(C)cc(NC(=O)C2CCN(S(=O)(=O)c3ccc4[nH]c(=O)ccc4c3)CC2)c1
    -1.3	8	-2.3	-8	-17	-9	-11	.
20	C=CCc1c(C)nc(SC)nc1Nc1ccc(C(=O)O)cc1
    1.3	-5	-0.2	1	5	7	0.6	0.1
21	Cc1onc(-c2c(F)cccc2Cl)c1C(=O)OCC(=O)NC(N)=O
    -0.1	2	0.7	-1	-2	2	-0.6	-0.8
22	O=C(C1Cc2ccccc2CN1S(=O)(=O)c1cccs1)N1CCCCCC1 (configuration not stated)
    0.5	-5	-1.3	7	11	-6	0.5	-0.1
23	CCOC(=O)c1ccc(NC(=O)CN2C(=O)CNC2=O)cc1
    -0.8	-6	1.1	4	-6	2	1.6	1.0
24	Cc1cc(C(=O)N2CCC(C(F)(F)F)n3nccc32)on1 (configuration not stated)
    2.2	3	0.6	18	-9	1	-3.3	0.9
25	Cc1nn(CCCC(=O)NCCc2ccccc2)c(=O)c2nccn12
    1.4	3	6.2	-4	-7	-12	2.2	0.8
26	CCN(CC(=O)Nc1ccc(OC)cc1)C(=O)CSCC(=O)Nc1cc(C)on1
    0.7	-4	.	.	.	-5	0.9	-0.6
27	Cc1cc(C)n(-c2ccc(C(=O)Nc3cc(C(F)(F)F)ccc3N3CCOCC3)cc2)n1
    -1.0	6	-2.0	6	15	0	3.3	-0.3
28	CCC(C(=O)NC1CCCCC1)n1c(SCc2cccc(F)c2)nc2ccncc21 (configuration not stated)
    4.6	-3	0.6	-5	-1	-13	0.2	-0.1
29	COc1cc(C(=O)OC2CCN(C)CC2)cc(OC)c1OC
    2.5	-5	4.8	.	19	5	-1.7	2.5
30	C#CCC(NC(=O)c1ccc(C(F)(F)F)cc1)C(=O)NCCC (configuration not stated)
    -2.1	-7	.	.	.	5	4.4	-0.1
31	N#CC/C(N)=N/NC(=O)CCCNc1ncc(C(F)(F)F)cc1Cl
    0.6	-12	0.7	1	-3	-2	-8.5	0.7
32	Cc1cc(C(=O)N/N=C/c2c[nH]c3ccccc23)cs1
    .	-2	1.5	1	-2	-5	-6.1	-1.3
33	O=C(CCN1CCOCC1)N1c2ccccc2Sc2ccc(Cl)cc21
    2.8	-6	-0.6	-9	-7	-8	0.4	-0.2
34	CCOc1ccccc1/C=c1\sc2nc(-c3ccco3)nn2c1=O
    .	-12	1.4	-4	9	5	-3.5	-2.2
35	COc1ccc(N(CC(=O)Nc2ccccc2C(=O)NCC(C)C)S(C)(=O)=O)cc1
    0.7	.	3.0	2	3	-4	6.6	1.0
36	CCC(=O)Nc1ccc(N2CCCCC2)c(C(=O)Nc2ccc(OC)cc2)c1
    4.3	-3	-2.5	16	11	11	-2.7	0.6
37	CCCN(CC(=O)Nc1ccc(F)c(F)c1F)CC(=O)Nc1c(Cl)cccc1Cl
    4.3	2	8.2	-20	14	-4	-0.1	0.2
38	COc1ccc(CCNC(=O)c2c(O)c3c([nH]c2=O)CCCC3)cc1
    1.5	6	0.2	-1	1	-4	-7.4	-0.4
39	COCc1cc(CNC(=O)C2CCC(=O)N(Cc3ccccc3F)C2)[nH]n1 (configuration not stated)
    0.5	-3	?	0	-14	11	-1.4	-0.8
40	O=c1oc(-c2ccccc2)nc2c1C1(CCCCC1)Cc1ccccc1-2
    3.5	2	4.1	?	-13	5	-3.5	-0.2
41	O=C(COc1ccccc1-c1ccccc1)NCCN1C(=O)S/C(=C\c2cccnc2)C1=O
    2.0	-11	?	0	2	6	-0.7	-0.8
42	COc1ccc2nc(NC(=O)[C@@H]3CCCN3C(=O)c3cccs3)sc2c1
    2.6	-9	-0.7	11	6	-1	3.3	-0.5
43	CCOC(=O)CSc1nc2ccccc2c(=O)n1NC(=O)c1ccccc1
    3.7	6	-6.4	2	8	14	-0.7	-0.4
44	COc1ccccc1Nc1c2ccccc2nc2ccccc12
    -1.2	33	27*	-3	48	4	-4.9	-1.0
45	O=C(c1ccccn1)N(CC1CCCO1)C1(C(=O)NC2CCCCC2)CCCCC1 (configuration not stated)
    0.4	.	-2.6	-1	10	5	25*	-0.8
46	CC(C)COP(=O)(c1ccc(N(C)C)cc1)C(O)c1ccccc1 (configuration not stated)
    3.4	0	?	45	-4	-8	-0.3	0.2
47	O=C(CSc1cccc[n+]1[O-])NCC1CCCCC1
    2.0	-2	1.1	-37	-11	7	1.8	-0.4
48	COc1ccc(N(C(=O)c2ccco2)S(=O)(=O)c2cc(OC)ccc2OC)cc1
    3.6	-6	-2.2	6	-9	4	1.2	0.1
49	CCOC(=O)c1sc(NC(=O)c2cncc(Br)c2)nc1C
    1.0	.	?	1	0	.	.	.
50	CCOC(=O)CSc1snnc1C
    0.4	-3	2.5	-8	-16	-2	-1.7	0.3
51	CCOc1c(Br)cc(CNc2ccc3c(c2)OCCO3)cc1OC
    -2.6	17	2.1	-3	-8	14	-3.4	-0.7
52	O=C(c1ccc2c(=O)n(-c3ccccc3)c(=O)[nH]c2c1)N1CCN(c2ccc(F)cc2)CC1
    4.6	-5	0.5	?	-4	5	-4.3	0.2
53	COc1ccc(CCNC(=O)C2CC(c3ccccc3F)=NO2)cc1 (configuration not stated)
    0.5	-3	-1.2	1	-18	0	0.8	-0.6
54	O=C(Nc1ccc(F)cc1)Nc1ccc(S(=O)(=O)N2CCCC2)cc1
    1.8	19	.	.	.	5	0.1	0.5
55	Cc1ccc(NC(=O)c2cc3c(=O)oc4ccc(C)cc4c3s2)nc1
    -62	33	-3.8	5	3	.	4.8	-1.5
56	CCCCCC(=O)N1CCN(CCN=CC2=C(O)CC(c3ccco3)CC2=O)CC1 (configuration not stated)
    1.2	-3	4.7	-3	1	-4	-5.4	0.4
57	O=c1c2ccc([N+](=O)[O-])cc2ncn1CCOc1ccc(Cl)cc1
    0.7	-6	?	16	63*	11	-1.6	0.9
58	Clc1nc(Cl)nc(N(c2ccccc2)c2ccccc2)n1
    1.6	-1	4.3	-6	-16	19	5.0	0.7
59	CCc1ccccc1NC(=O)CSc1nnc(C2CC2)n1CC1CCCO1 (configuration not stated)
    0.3	0	4.7	17	-9	3	19*	0.3
60	COC(=O)c1nc(NC2=NCCCCC2)n[nH]1
    1.8	-4	0.4	0	-8	4	1.2	-0.7

More entries
Every second line gives: UCH37 inh	Beta cell apopt	RanGTP-Impb inh	Calb FLC	T cruzi inh	Beta2AR agonist	LANA-H2A inh	Bfl-1 A1 inh
61	CC1CCN(S(=O)(=O)c2cccc(C(=O)NNC(=O)c3ccco3)c2)CC1
    0.9	-1	3.2	7	-3	-9	2.6	-0.1
62	O=C(Nc1cccc(Cl)c1N1CCCC1)c1ccco1
    1.9	0	0.2	7	-8	-5	-6.5	0.3
63	COc1cc2c(cc1OC)C(/C=C/c1ccco1)=NCC2
    -65	.	11	1	38	-9	.	.
64	O=C(Nc1cccc([N+](=O)[O-])c1)ONC1=NCCCCC1
    7.5	-9	-1.5	-6	2	-2	-1.9	0.6
65	COc1cc(CNCCN2CCOCC2)ccc1OCc1ccc(Cl)cc1
    0.1	3	2.1	5	49	7	-2.8	0.2
66	CN(C)c1nnnn1-c1ccc(Oc2ncc(C(F)(F)F)cc2Cl)cc1
    3.9	2	-4.6	29	19	-13	4.0	-0.1
67	O=C(O)CSC1CC(=O)N(c2ccc(Cl)cc2)C1=O (configuration not stated)
    0.5	-8	-0.1	11	-7	4	1.5	-0.2
68	Nc1nc(COc2ccccc2)cs1
    2.2	-6	1.9	-44	-4	-1	-6.4	-0.9
69	CC(=O)Nc1cccc(NC(=O)c2ccc([N+](=O)[O-])cc2Cl)c1
    -3.2	-3	-0.7	-4	29	-3	-5.0	-0.2
70	COc1cc(C2CC(=O)Nc3cc(C)c(C)cc32)cc(OC)c1OC (configuration not stated)
    5.2	-6	6.2	8	-7	-11	-6.3	-0.8
71	O=C(CN1CCCCC1)Nc1ccccc1-c1ccccc1
    1.7	-5	-0.5	-23	20	4	-0.4	0.7
72	Cc1ccc(C(=O)NC(=S)NCC2CCCO2)cc1[N+](=O)[O-] (configuration not stated)
    -1.5	.	0.9	10	-7	-5	1.1	1.0
73	Cc1nn(-c2ccc3ccccc3c2)c(=O)c2ccccc12
    -2.8	4	0.6	14	-13	-5	6.6	-1.0
74	COCC(=O)Nc1ccc(C)c(Cl)c1
    1.3	-1	0.3	1	-10	4	0.8	-1.5
